# Bioassay records deposited in PubChem BioAssay by Broad Institute.
# Ecoli rRNA inh = selective bacterial rRNA inhibition in E. coli; E. coli WT GFP vs humanized-ribosome RFP mutants, fluorescence, 24 h; stronger effect = lower value; DMSO median 0, no signal -100; GFP signal change (wild-type ribosome), % (no concentration beside the values); 350,000 tested, 1.6% active; AID 720706;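 active = significant combined selectivity score with lowered wild-type GFP, culture density cut under 30%, mutant RFP and density less affected; inactive = any of these conditions unmet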; also: one replicate is shown; some compounds called inactive have numbers as strong as hits
# Ecoli rRNA inh OD600 = second read-out of Ecoli rRNA inh, no call of its own (marks repeat the call); OD600 change, %; measured here: OD600 growth;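 optical density of the mix in the first replicate; 0 = DMSO median and -100 = no signal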
# Ecoli rRNA inh RFP = second read-out of Ecoli rRNA inh, no call of its own (marks repeat the call); RFP signal change, %; measured here: RFP humanized mutant strains;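 first replicate; 0 = DMSO median and -100 = no signal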
# Active calls of the source: *; & = joins results of further samples.
structure | Ecoli rRNA inh | Ecoli rRNA inh OD600 | Ecoli rRNA inh RFP
Cc1ccc(S(=O)(=O)N(C)C[C@@H]2OCc3cnnn3CCCC(=O)N([C@H](C)CO)C[C@@H]2C)cc1 | 6&-2 | 5&-6 | 1.5&1.2
COCCCNC(=S)N1CCN(c2nc(-c3ccc(Cl)cc3)cs2)CC1 | 18 | -13 | 16
C[C@H]1CN([C@@H](C)CO)C(=O)Cc2cc(NC(=O)C3CC3)ccc2O[C@H]1CN(C)S(C)(=O)=O | 2 | 1 | 0.0
Cc1noc(C)c1NC(=O)N(C)C[C@H]1OCc2cnnn2CCCC(=O)N([C@H](C)CO)C[C@H]1C | 1&13 | 7&14 | -0.6&0.4
COc1ccccc1S(=O)(=O)Nc1ccc2c(c1)OC[C@@H](C)NC[C@H](C)[C@H](OC)CN(C)C2=O | 2 | 1 | -1.4
Cc1noc(C)c1NC(=O)Nc1ccc2c(c1)C(=O)N([C@H](C)CO)C[C@H](C)[C@H](CN(C)Cc1ccc(C(=O)O)cc1)OCCCC[C@H](C)O2 | 4 | 12 | -1.9
COc1ccc2c3c([nH]c2c1)[C@@H](CO)N(S(C)(=O)=O)CC31CCN(Cc2nccs2)CC1 | 0 | 3 | -1.7
C[C@@H]1CN([C@H](C)CO)C(=O)c2cccc(NC(=O)C3CC3)c2O[C@H]1CN(C)Cc1ccc(Oc2ccccc2)cc1 | 1 | 0 | -0.1
C[C@@H]1CN([C@@H](C)CO)C(=O)c2cccc(NS(=O)(=O)c3ccc(F)cc3)c2O[C@@H]1CN(C)S(=O)(=O)c1ccccc1 | -1 | -10 | 6.9
C[C@H](CO)N1C[C@H](C)[C@H](CN(C)Cc2ccc(C(=O)Nc3ccccc3N)cc2)Oc2c(NC(=O)Nc3ccc4c(c3)OCO4)cccc2C1=O | -1 | 2 | 1.9
CCC(=O)N1CCCC(C)(C(=O)Nc2ccc(C)c(C)c2)C1 (stereo unspecified) | 2 | 12 | 0.0
CCCN(C)C[C@@H]1Oc2ncc(C#CCN(C)C)cc2C(=O)N([C@H](C)CO)C[C@@H]1C | 4 | 5 | -3.6
C[C@@H]1CN([C@H](C)CO)C(=O)c2cc(/C=C/c3ccccc3)cnc2O[C@@H]1CN(C)C(=O)c1cccc(F)c1 | 2 | -3 | 0.9
COc1ccc(CN(C)C[C@@H]2Oc3c(NS(=O)(=O)c4ccc(Cl)cc4)cccc3C(=O)N([C@@H](C)CO)C[C@@H]2C)cc1 | -4 | -1 | 3.1
C[C@@H]1CN([C@H](C)CO)C(=O)c2cc(N(C)C)ccc2O[C@H]1CN(C)Cc1ccc2c(c1)OCO2 | 2 | 3 | -1.0

# Random excerpt: 2 compounds from above
structure | Ecoli rRNA inh | Ecoli rRNA inh OD600 | Ecoli rRNA inh RFP
Cc1noc(C)c1NC(=O)N(C)C[C@H]1OCc2cnnn2CCCC(=O)N([C@H](C)CO)C[C@H]1C | 1&13 | 7&14 | -0.6&0.4
C[C@@H]1CN([C@@H](C)CO)C(=O)c2cccc(NS(=O)(=O)c3ccc(F)cc3)c2O[C@@H]1CN(C)S(=O)(=O)c1ccccc1 | -1 | -10 | 6.9

# Some of these compounds in order of the Ecoli rRNA inh value, largest number first.
structure | Ecoli rRNA inh | Ecoli rRNA inh OD600 | Ecoli rRNA inh RFP
COCCCNC(=S)N1CCN(c2nc(-c3ccc(Cl)cc3)cs2)CC1 | 18 | -13 | 16
Cc1noc(C)c1NC(=O)Nc1ccc2c(c1)C(=O)N([C@H](C)CO)C[C@H](C)[C@H](CN(C)Cc1ccc(C(=O)O)cc1)OCCCC[C@H](C)O2 | 4 | 12 | -1.9
CCC(=O)N1CCCC(C)(C(=O)Nc2ccc(C)c(C)c2)C1 (stereo unspecified) | 2 | 12 | 0.0
COc1ccc2c3c([nH]c2c1)[C@@H](CO)N(S(C)(=O)=O)CC31CCN(Cc2nccs2)CC1 | 0 | 3 | -1.7
COc1ccc(CN(C)C[C@@H]2Oc3c(NS(=O)(=O)c4ccc(Cl)cc4)cccc3C(=O)N([C@@H](C)CO)C[C@@H]2C)cc1 | -4 | -1 | 3.1

# Carrying on.
structure | Ecoli rRNA inh | Ecoli rRNA inh OD600 | Ecoli rRNA inh RFP
Cc1ccc(S(=O)(=O)N2[C@H](CC(=O)c3cccc4ccccc34)OC[C@@H]2C)cc1 | 10 | 9 | 9.8
COc1ccc(Br)c(Cn2c(C)c(C(=O)NCCC#N)sc2=O)c1 | 2 | -7 | -2.2
C[C@@H]1CN([C@H](C)CO)C(=O)c2cccc(NS(=O)(=O)c3ccc(Cl)cc3)c2O[C@@H]1CN(C)S(=O)(=O)c1ccccc1 | -2 | -1 | -1.9
Cc1ccc(S(=O)(=O)Nc2ccc3c(c2)CC(=O)N([C@@H](C)CO)C[C@@H](C)[C@H](CN(C)C(=O)Nc2cccc4ccccc24)O3)cc1 | 0 | 0 | 1.7
C[C@@H]1CN([C@@H](C)CO)C(=O)CCCn2nncc2CO[C@@H]1CN(C)S(=O)(=O)c1ccc(Cl)cc1 | 2&-4 | 4&-7 | 1.0&1.0
C[C@H]1[C@@H]2C[C@@]3(O[C@H](c4ccccn4)N=C3C[C@@H]1c1ccccc1)N(Cc1ccncc1)C2=O | 15 | 10 | 2.1
Nc1ccc2c(c1)C1(CCC2)NC(=O)NC1=O (stereo unspecified) | 2 | 13 | -0.9
CC(C)NC(=O)N(C)C[C@@H]1Oc2c(NS(=O)(=O)c3ccc(Cl)cc3)cccc2C(=O)N([C@@H](C)CO)C[C@@H]1C | -5 | 5 | -0.3
COc1cccc(S(=O)(=O)N2CCCCN3[C@H](CO)[C@H](c4ccc(C5=CCCCC5)cc4)[C@H]3C2)c1 | -32* | -13* | 3.7*
C[C@@H]1CCCCO[C@@H](CN(C)C(=O)Nc2ccc(F)cc2)[C@@H](C)CN([C@H](C)CO)C(=O)c2cc(NS(=O)(=O)c3ccccc3)ccc2O1 | 6 | 4 | 3.0
COc1ccc(Nc2nc3cc(-c4ccccc4C)sc3c(=O)n2C)cc1OC | -23 | -39 | -0.1
C[C@@H]1CN([C@@H](C)CO)S(=O)(=O)c2ccc(C#CCN(C)C)cc2O[C@@H]1CN(C)C(=O)C1CC1 | -1 | -1 | -3.3
C[C@H]1CN([C@@H](C)CO)C(=O)Cc2cc(NC(=O)CCN3CCOCC3)ccc2O[C@@H]1CN(C)S(=O)(=O)c1cn(C)cn1 | 5 | 2 | -1.6
C[C@@H]1CCCCO[C@H](CN(C)CC2CCCCC2)[C@@H](C)CN([C@H](C)CO)C(=O)c2cc(NC(=O)Nc3ccc4c(c3)OCO4)ccc2O1 | 1 | 1 | 2.4
O=C(c1ccccc1F)N1CC[C@@H]2[C@H]1c1cc(Br)ccc1N[C@@H]2CO | -4 | -8 | -5.6

# Part of the list above, showing only Ecoli rRNA inh RFP and Ecoli rRNA inh:
molecule	Ecoli rRNA inh RFP	Ecoli rRNA inh
C[C@@H]1CN([C@H](C)CO)C(=O)c2cc(N(C)C)ccc2O[C@H]1CN(C)Cc1ccc2c(c1)OCO2	-1.0	2
Cc1ccc(S(=O)(=O)N2[C@H](CC(=O)c3cccc4ccccc34)OC[C@@H]2C)cc1	9.8	10
COc1ccc(Br)c(Cn2c(C)c(C(=O)NCCC#N)sc2=O)c1	-2.2	2
C[C@@H]1CN([C@H](C)CO)C(=O)c2cccc(NS(=O)(=O)c3ccc(Cl)cc3)c2O[C@@H]1CN(C)S(=O)(=O)c1ccccc1	-1.9	-2

# Later entries
structure | Ecoli rRNA inh | Ecoli rRNA inh OD600 | Ecoli rRNA inh RFP
Cc1ccc(S(=O)(=O)N(C)C[C@@H]2Oc3c(NS(C)(=O)=O)cccc3C(=O)N([C@@H](C)CO)C[C@@H]2C)cc1 | -2 | 11 | -1.2
CCS(=O)(=O)N1[C@H](C#N)[C@H](c2ccc(-c3cccc(F)c3)cc2)[C@@H]1CO | 1 | -7 | -0.2
Cc1ccc([C@H]2C[C@H](n3cc(COC(=O)c4ccccc4)nn3)[C@@H](O)CN2Cc2cccs2)cc1 | 22 | 5 | 22
C[C@@H]1CN([C@H](C)CO)C(=O)c2c(c3ccccc3n2C)-c2ccccc2CO[C@H]1CN(C)S(=O)(=O)c1cccc(F)c1 | 1 | 5 | -1.0
C[C@@H]1CN([C@@H](C)CO)C(=O)c2cc(NS(=O)(=O)c3ccccc3)ccc2O[C@@H]1CN(C)C(=O)Nc1cccc2ccccc12 | -2 | 0 | 2.7
Fc1cccc(CN2C[C@@H]3N[C@H](C2)C3c2ccc(-c3ccccc3)cc2)c1 (stereo partly specified) | -55 | -77 | -9.4
Cn1cnc(S(=O)(=O)N2C[C@H](O)COC[C@H]3O[C@H](CC(=O)N4CCN(c5ccccc5)CC4)CC[C@@H]32)c1 | 0 | 10 | 1.7
Cc1ccc(S(=O)(=O)N[C@H]2C=C[C@@H](CC(=O)O)O[C@H]2CO)cc1 | 4 | 4 | -2.5
O=C(CC1CC1)Nc1ccc2c(c1)[C@H]1C[C@H](CC(=O)N3CCc4ccccc4C3)O[C@H](CO)[C@H]1O2 | -3 | -3 | -2.2

# An excerpt; count on the stated rates, not on these rows.
